# VDR inhibitor – inhibitors of human vitamin D receptor; P11473; VDR-SRC2-3 peptide fluorescence polarization, 2 h; Potency, µM, without a hit: max response, negative = inhibition, usual class: inhibitors; hit rate 0.93% among 400,000; AID 504847; active = well fitted inhibition curve with a large enough effect; inconclusive = small, poorly fitted or top-dose-only effect, or another doubt; inactive = no such curve, though single readings can be large or run the other way; also: series mostly up to about 120 µM
# Target sequence (P11473 whole entry, looked up): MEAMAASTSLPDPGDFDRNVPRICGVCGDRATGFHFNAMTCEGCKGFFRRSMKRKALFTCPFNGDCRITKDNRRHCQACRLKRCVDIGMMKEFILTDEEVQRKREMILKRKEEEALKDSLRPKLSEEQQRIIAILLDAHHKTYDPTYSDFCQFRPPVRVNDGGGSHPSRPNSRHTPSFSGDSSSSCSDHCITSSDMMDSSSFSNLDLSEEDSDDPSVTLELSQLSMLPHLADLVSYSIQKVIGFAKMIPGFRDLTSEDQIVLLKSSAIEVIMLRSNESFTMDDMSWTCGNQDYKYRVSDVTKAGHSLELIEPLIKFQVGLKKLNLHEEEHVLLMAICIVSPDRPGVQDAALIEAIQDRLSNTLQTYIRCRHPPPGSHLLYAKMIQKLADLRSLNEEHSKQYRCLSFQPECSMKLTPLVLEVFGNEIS
#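 Reagent solutions, kept cold and dark, are dispensed first; compounds are then pinned in at 23 nl, plates briefly spun, and incubated 2 h at ambient temperature. Inhibition of VDR–SRC2-3 peptide binding is read by fluorescence polarization.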
# * hit, by the source's call; ? = inconclusive; & = joins results of further samples; [ ] = another dose, or the depositor's remark. % is scaled to controls: 0 for no effect and ±100 for the full control effect; potency is read from the fitted curve at half-maximal effect.
Molecule,VDR inhibitor
O=C(c1cccc(F)c1)N1CCCC(C(=O)N2CCCCCC2)C1 (centres undefined),-12%
COc1ccc([C@@H]2[C@@H]3C(=O)N(C(C)(C)C)C(=O)[C@@H]3[C@]3(Cc4ccc(Cl)cc4)C(=O)N(c4cccc(F)c4)C(=O)N23)cc1,3%
O=C(NCc1ccccc1Cl)c1ccc(CS(=O)Cc2ccc(Cl)cc2)o1 (centres undefined),9%
CCN1CCN(c2ncc(C(=O)Nc3ccccc3C(=O)OC)c3ccccc23)CC1,-21%
CCN1CCN(C(=O)Cn2nc(C)c3sc4ccccc4c3c2=O)CC1,-1%
CCOC(=O)c1c(NC(C)=O)sc(C(=O)NC2CCCC2)c1C,-7%
N#Cc1cn(CCCOc2ccccc2)c2ccccc12,-5%
CC1CCCC(C)N1C(=O)COc1ccccc1F (centres undefined),9%
Cc1ccc2nc3c(c(C(=O)OC4CCOC4=O)c2c1)CCCC3 (centres undefined),-12%
COc1ccc(OC)c(C(=O)c2coc3ccc(O)c(CN(C)C)c23)c1,-22%
CCOC(=O)N1CCc2c(sc(NCc3cccs3)c2C(=O)Nc2ccc(OC)cc2OC)C1,?
COc1cc(/C=N/NC(=O)c2ccncc2)ccc1OCC(=O)Nc1cccc([N+](=O)[O-])c1,28%
COc1ccc(-c2cc(C(F)(F)F)nc(SCC(N)=O)n2)cc1,-2%
c1ccc2sc(SCSc3nc4ccccc4s3)nc2c1,-2%
Cc1oc(-c2ccccc2)nc1C(=O)N1CCN(c2ccc(F)cc2)CC1,?
Cc1ccc2c(CNCCc3ccc(Cl)cc3)c(C(=O)O)n(Cc3ccc(F)cc3)c2c1,7%
Cc1cc(C)cc(NC(=S)N(CCN(C)C)Cc2cccs2)c1,2%
O=c1cc(CSc2n[nH]c(-c3ccncc3)n2)nc2sccn12,8%
Cn1nnnc1NCc1ccccc1F,4%
CCSc1ncc(C#N)c(=O)[nH]1,13%
O=C(CN1C(=O)CCSc2ccc(S(=O)(=O)N3CCCC3)cc21)Nc1cccc(Cl)c1,11%
Cc1ccc(S(=O)(=O)N2CCN(C(=O)COC(=O)CCOc3cc(C)ccc3C)CC2)cc1,-3%
CC(OC(=O)c1nn(C)c(=O)c2ccccc12)C(=O)NCc1ccc2c(c1)OCO2 (centres undefined),7%
Cc1c(OCC(=O)NCc2ccccn2)ccc2c(-c3ccccc3)cc(=O)oc12,-21%
Cc1cccc(C(C)C)c1NC(=O)Cc1ccc(S(=O)(=O)N2CCOCC2)s1,13%
COc1ccc(S(=O)(=O)N(C)C)cc1NC(=O)COC(=O)c1nc2nccc(C)n2n1,-27%
COc1ccc(CCN2CC(C(=O)Nc3ccc4c(c3)OCO4)CC2=O)cc1OC (centres undefined),-17%
CC1(C)Cc2cccc(OCC(=O)NCCOc3ccccc3)c2O1,?
Cc1cccc(C)c1NC(=O)CNC(=O)CNC(=O)c1ccc2c(c1)OCO2,-11%
Cn1ncc2c(N3CCN(c4ccc(F)cc4)CC3)ncnc21,7%

# 3 entries drawn at random from those above:
Molecule,VDR inhibitor
COc1ccc(S(=O)(=O)N(C)C)cc1NC(=O)COC(=O)c1nc2nccc(C)n2n1,-27%
CC(OC(=O)c1nn(C)c(=O)c2ccccc12)C(=O)NCc1ccc2c(c1)OCO2 (centres undefined),7%
Cc1ccc(S(=O)(=O)N2CCN(C(=O)COC(=O)CCOc3cc(C)ccc3C)CC2)cc1,-3%

# (continued)
Molecule,VDR inhibitor
Cc1cc(N/N=C/c2cccc([N+](=O)[O-])c2)nc(-n2nc(C)cc2C)n1,7%
CN(C)CCNC(C(=O)Nc1cccc(S(=O)(=O)N2CCOCC2)c1)c1ccccc1 (centres undefined),1%
CCOC(=O)c1c(S(=O)(=O)N2CCCC(C(=O)Nc3ccc(C)cn3)C2)c(C)n(C)c1C (centres undefined),1%&8%
COc1cc(C(=O)NCc2cccc(Cl)c2)ccc1OCC(=O)N1CCOCC1,1%
Cc1ccc(NS(=O)(=O)c2ccc3c(c2)CC(=O)N3)c(C)c1,-4%
CCN(CC)CCNC(=O)Cn1nc(Cc2ccncc2)c2ccccc2c1=O,0%
O=C(Nc1nccs1)C1CC(=O)N(CCc2ccccc2)C1 (centres undefined),-26%
CCN(C(=O)CCc1nc(-c2ccc(C)cc2)no1)c1cccc(Cl)c1,7%
Cc1cc(Nc2cccc(Br)c2)c2ccccc2n1,7%
CCOC(=O)C1CCCN(C(=O)Cn2ncc3c4ccccc4n(C)c3c2=O)C1 (centres undefined),2%
CCOC(=O)c1c(S(=O)(=O)Nc2ccc(F)cc2Cl)c(C)n(C)c1C,0%
Cc1cc(C)nc(N2CCN(S(=O)(=O)c3ccc(F)cc3)CC2)n1,-18%
COc1cc(/C=C/C(=O)N(C)CC(=O)Nc2ccccc2SC)cc(OC)c1OC,-2%
O=C(OCC(=O)c1ccc[nH]1)c1ccc(Br)cc1,5%
CN(Cc1c(F)cccc1Cl)S(=O)(=O)c1cccs1,-13%
COc1ccc(/C=N\NC(=O)c2cccc(Br)c2)c(OC)c1,-18%
CCCOc1ccc(/C=N/NC(=O)C2CC2)c(OCCC)c1,-11%
O=C(N/N=C/c1cccc(Oc2ccccc2)c1)c1cc[n+]([O-])cc1,-11%
COc1ccc(CC(C)N2CCN(Cc3ccccc3)CC2)c(OC)c1 (centres undefined),6%
COc1cc(/C=N\Nc2ccc([N+](=O)[O-])cc2)ccc1OCC(=O)Nc1ccc(C)c(C)c1,-14%
O=C(Nc1ccccc1)C1CC=CCC1C(=O)OCC1CCCO1 (centres undefined),-20%
O=C(c1cccc(Oc2ccccc2)c1)N1CCOCC1,32%[activator]
O=C(C1=C[C@@H](c2coc3ccccc3c2=O)C[C@@H](OCc2ccc(CO)cc2)O1)N1CCOCC1,-6%
O=C(N/N=C/C=C/c1ccccc1[N+](=O)[O-])c1cc(-c2ccccc2)n[nH]1,-14%
CN(Cc1ccccc1)C(=O)c1nc2ccccn2c1CN1CCc2sccc2C1,-3%
CCc1cc(=O)oc2cc(OCC(=O)N3CC[C@@]4(O)CCCC[C@H]4C3)ccc12,-14%
COc1ccc(-c2csc(NC(=S)NC(=O)c3ccco3)n2)cc1,12%
CC(=O)Nc1sc(C)c(C)c1C(=O)OCC(=O)Nc1ccccc1,-9%
COc1ccc(-c2ccnc3nc(Sc4ncc(C(F)(F)F)cc4Cl)nn23)cc1,-5%
Cc1ccc(S(=O)(=O)N2CCN(C(=O)C3CCCO3)CC2)cc1C (centres undefined),-5%
CCOC(=O)C1CCCN(C(=O)c2ccc(S(=O)(=O)Nc3ccccc3OC)cc2)C1 (centres undefined),-25%
CCOC(=O)/C=C(\C)N1N=C(c2ccccc2)CC1c1ccccc1 (centres undefined),20%
CCOc1ncccc1C(=O)OCC(=O)Nc1cccc(C(C)=O)c1,6%
COC(=O)[C@@H](NCc1ccc(OC)c(B(O)O)c1)C(C)C,5%
Cc1cc(C(=O)Nc2cc(S(C)(=O)=O)ccc2Cl)c(C)o1,0%
O=C(COC(=O)c1nc(Cl)ccc1Cl)NCc1ccc(Cl)cc1,-10%
CCn1nnnc1NCc1ccc(OCc2c(F)cccc2Cl)c(OC)c1,-2%
CC(=O)Nc1ccc(S(=O)(=O)N2CCN(c3nc4ccccc4n3CC(C)C)CC2)cc1,-2%
COC(=O)c1ccc(S(=O)(=O)c2ccc([N+](=O)[O-])cc2)cc1,-4%
CC(=O)OCC(=O)C12OC(C)(C)OC1CC1C3CC=C4CC(O)CCC4(C)C3CCC12C (centres undefined),23%
O=C(Nc1ccc(-c2nc3cc(NC(=O)c4ccc(Cl)cc4)ccc3o2)cc1)c1ccc(Cl)cc1,-3%
O=C(CCN1CCOCC1)N/N=C/c1cc(Br)cc(Br)c1O,18%
Cc1cc(=O)oc2c(C)c(OCC(=O)NC3CCN(Cc4ccccc4)CC3)ccc12,-17%
O=C(CN1CCN(S(=O)(=O)c2ccc(Cl)cc2)CC1)NC(=O)NC1CCCCC1,-10%
Cc1ccc(C(=O)NC2CCN(CC(=O)Nc3c(C)cc(C)cc3C)CC2)cc1,-8%
O=C(O)c1cc2ncc(CCO)cn2n1,-2%
COc1cccc(-c2ccc3ncnc(N(C)C)c3c2)c1,-22%
O=C(COC(=O)C1CC1)Nc1ccc(Cl)cc1Cl,11%
CC(C)CC(=O)Nc1ccc(C(=O)COC(=O)Cc2n[nH]c(=O)c3ccccc23)cc1,0%
Cc1cc(C)nc(NC(=O)COc2cc(Cl)cc(Cl)c2)n1,?
CCOC(=O)c1c(NC(=O)COC(=O)c2nc(Cl)ccc2Cl)sc(C(=O)NC)c1C,8%
COc1ccc(OC)c(NC(=O)COC(=O)CCc2ccc(S(=O)(=O)N3CCOCC3)cc2)c1,-5%
COc1ccccc1Oc1nnnn1-c1ccc(C(N)=O)cc1,-1%
O=C(COc1ccccc1F)Nc1ccc2c(c1)OCCO2,7%
C/C(=N/NC(=O)c1ccc(C)nc1)c1ccc2c(c1)CCCC2,-16%
COc1cccc(NC(=O)CCN2CCN(CCO)CC2)c1,3%
CCC(OC(=O)c1nsc(Cl)c1Cl)C(=O)NCc1ccco1 (centres undefined),6%
CCC(=O)NC(O)C(=O)c1ccc(C)cc1 (centres undefined),-6%
CCN(CC)S(=O)(=O)c1ccc2c(c1)N(CC(=O)N1CCN(c3ccc(F)cc3)CC1)C(=O)CO2,-10%
Cc1nonc1OCCNCCNc1ccccc1[N+](=O)[O-],-18%

# The list goes on.
Molecule,VDR inhibitor
CCCn1c(NCc2c[nH]c3ccccc23)nc2ccccc21,-4%
Cc1ccc(C2=CSC3=NCCN23)c(C)c1,-3%
COc1ccc(CCN2CC(C(=O)NCc3nc4ccccc4n3C)CCC2=O)cc1 (centres undefined),12%
O=C(CNC(=O)c1ccccc1)OCc1nnc(-c2ccc(Cl)cc2)o1,-15%
O=C1CC(c2ccccc2)CC(O)=C1C=NCC1CCCO1 (centres undefined),-4%
CCOC(=O)[C@H]1[C@H]2COc3ccc(C)cc3[C@@H]2N2C(=O)c3ccccc3NC(=O)[C@@]12C,-20%
Cc1ccc(C(=O)NC(C)c2ccncc2)o1 (centres undefined),-15%
CSc1ccc(CNCc2ccco2)cc1,-12%
O=C(O)c1cccc(S(=O)(=O)NCC2CCCO2)c1 (centres undefined),-7%
COc1ccc(C(=O)COC(=O)c2c(C)noc2C)cc1Cl,9%
Cc1cccc(COC[C@H](Cc2ccccc2)N2CCN(C(=O)c3cccc(Cl)c3)CCC2=O)c1,?
O=[N+]([O-])c1cccnc1Sc1ccc(Cl)cc1,-9%
O=C(O)COc1ccccc1/C=C1\SC(=S)N(/N=C/c2ccccc2O)C1=O,?
COc1cccc2sc(N(Cc3cccnc3)C(=O)c3ccc(S(=O)(=O)N(C)C)cc3)nc12,12%
COc1cc(NC(=O)Cn2c(=O)n(-c3cccc(C)c3)c(=O)c3c(C)c(C)sc32)cc(OC)c1,6%

# Entries from the list above that have a COOH group, in the order listed:
Molecule,VDR inhibitor
Cc1ccc2c(CNCCc3ccc(Cl)cc3)c(C(=O)O)n(Cc3ccc(F)cc3)c2c1,7%
O=C(O)c1cc2ncc(CCO)cn2n1,-2%
O=C(O)c1cccc(S(=O)(=O)NCC2CCCO2)c1 (centres undefined),-7%
O=C(O)COc1ccccc1/C=C1\SC(=S)N(/N=C/c2ccccc2O)C1=O,?

# New compounds follow
Molecule,VDR inhibitor
CCCC(c1nnnn1C(C)(C)C)N1CCN(Cc2ccccc2)CC1 (centres undefined),-5%
Fc1ccccc1NC(=S)NC1CCCC1,-3%
CCCCN(C(=O)CCC(=O)Nc1cc(C)on1)C(C(=O)NC1CCCC1)c1ccc(OCC)cc1 (centres undefined),10%
CC(C)NC(=O)NC(=O)COC(=O)CCOc1ccccc1,20%
O=C(CSc1nnnn1-c1ccc(O)cc1)c1cc2ccccc2o1,-14%
CC(C)CC1CCCCC1OC(=O)C[N+]1(C)CCCCC1 (centres undefined),-11%
O=P(Cc1cc(Br)cc(Br)c1OCCO)(c1ccccc1)c1ccccc1,7%
CC(C)Oc1ccc(C(=O)Nc2ccc(S(=O)(=O)N3CCN(C)CC3)cc2)cc1,-7%
CCOC(=O)c1cccc(NC(=O)c2cc(C)nc3c2c(C)nn3-c2ccc(C)cc2)c1,5%
CCCn1nc2cc(C(=O)NCc3ccc(C)cc3)ccc2c1OCC,-3%
O=C(/C=C/c1ccc([N+](=O)[O-])cc1)Nc1cccc(C(=O)Nc2ccccc2C(=O)O)c1,-9%
CCc1ccccc1NC(=O)CC1SCCNC1=O (centres undefined),-19%
CCCOC(=O)c1ccc2c(c1)C(=O)N(c1ccccc1)C2=O,-6%
CCn1c(SCc2ccc(C(=O)Nc3cc(C)cc(C)c3)cc2)nnc1-c1ccncc1,-4%
Cc1nnc(NC(=O)c2cccc(S(=O)(=O)N3CCc4ccccc43)c2)s1,2%
CN(NC(N)=O)c1ncc(C(F)(F)F)cc1Cl,3%
CCOC(=O)c1ccc(N2C(=O)c3n[nH]c(-c4ccco4)c3C2c2ccc(O)c(OCC)c2)cc1 (centres undefined),?
Cn1cnc(C(=O)NC2CCN(C(=O)OC(C)(C)C)CC2)c1C(=O)NC1CCN(C(=O)OC(C)(C)C)CC1,4%
Cc1cc(Nc2ccc(F)c(Cl)c2)n2nc(C)nc2n1,6%
O=C(CSc1nnc(CNC(=O)c2ccccc2F)o1)Nc1ccc2c(c1)OCCO2,-3%
CC1CCc2nc3ncn(CC(=O)Nc4cccc(C#N)c4)c(=O)c3cc2C1 (centres undefined),1%

# From PubChem

# This is a subset; count on the stated rates, not on these rows.
